Assay outcomes from PubChem.
GIV Gai3 FP: inhibitors of GIV peptide binding to Galpha-i3, primary screen, biochemical, fluorescence polarization, FITC-GIV GBA peptide, rat Galphai3 | Guanine nucleotide-binding protein G(i) subunit alpha-3 (Rattus norvegicus), P08753 | 90 min; active compounds read low; scaled: aluminum fluoride 0%, vehicle 100% | percent of control (FP), % (concentration not given with the values) | 210,000 compounds, 0.42% hits;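 active = replicate mean at 85% of control or lower, very high polarization wells dropped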;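 also: wells of about 15 µL received 100 nL stock; the first replicate is given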
Target sequence (P08753 whole entry, looked up): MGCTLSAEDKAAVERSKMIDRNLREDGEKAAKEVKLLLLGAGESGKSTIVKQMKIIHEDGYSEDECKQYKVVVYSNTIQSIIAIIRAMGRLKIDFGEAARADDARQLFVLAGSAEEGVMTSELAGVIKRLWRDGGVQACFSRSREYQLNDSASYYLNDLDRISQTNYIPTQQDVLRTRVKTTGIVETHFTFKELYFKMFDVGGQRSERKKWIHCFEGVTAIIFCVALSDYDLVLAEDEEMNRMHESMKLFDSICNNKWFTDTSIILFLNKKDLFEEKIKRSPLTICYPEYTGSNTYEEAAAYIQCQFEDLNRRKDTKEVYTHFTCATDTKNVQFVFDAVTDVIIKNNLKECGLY
The depositor's hits bear a star.

Preview:
GIV Gai3 FP	smiles
101.4	CC(c1nnc(SCC(=O)N2CCN(c3ccccc3)CC2)n1C)N1C(=O)COc2ccccc21 (stereo not drawn)
98.8	CCOc1ccc(C2c3[nH]c4ccccc4c3CCN2C(=O)c2ccccc2Cl)cc1 (stereo not drawn)

Results, from the first entry:
GIV Gai3 FP	smiles
101.4	CC(c1nnc(SCC(=O)N2CCN(c3ccccc3)CC2)n1C)N1C(=O)COc2ccccc21 (stereo not drawn)
98.8	CCOc1ccc(C2c3[nH]c4ccccc4c3CCN2C(=O)c2ccccc2Cl)cc1 (stereo not drawn)
107.4	CCOC(=O)C1CCN(S(=O)(=O)c2cc(C(=O)Nc3ccc(Oc4ccccc4)cc3)ccc2F)CC1
114.9	C=CCOC(=O)C1C(C)CC2(C)CC1C(=O)O2 (stereo not drawn)
110.8	Cc1c(Cl)cccc1NC(=O)CSC1=C(C#N)C(c2ccco2)C2=C(CCCC2=O)N1 (stereo not drawn)
100.0	CC1CCN(S(=O)(=O)c2ccc3c(c2)C(=O)Nc2cc(Cl)ccc2O3)CC1
107.0	CCOC(=O)C1CCCn2c1nc1cc(-c3ccc(OC)cc3)sc1c2=O (stereo not drawn)
108.6	COc1cc(-c2nc3c4ccccc4c4ccccc4c3[nH]2)cc(OC)c1OC
103.7	Cc1nn(-c2ccccc2)c(N2CCC(C(=O)NC3CCCC3)CC2)c1NC(=O)C(C)C
99.6	O=C(Nc1ccc(Cl)cc1)c1cc([N+](=O)[O-])ccc1N1CCCCC1
102.7	CC1(C)CC(=O)C=C(NC2CC(C)(C)NC(C)(C)C2)C1
106.2	Cc1ccc(C23CC4CC(CC(C(=O)NC5C6CC7CC(C6)CC5C7)(C4)C2)C3)cc1 (stereo not drawn)
107.4	CC(C)c1cc(C(=O)N2CCCC2c2cc(C(C)C)on2)on1 (stereo not drawn)
107.5	CCOC(=O)Cc1nnc2c(Nc3ccccc3C)nc3nonc3n12
98.6	CCOC(=O)C1(C)C=C(Nc2ccccc2)C(=O)N1c1ccccc1 (stereo not drawn)
106.7	CCN(CC)c1ncnc2c1oc1ccccc12
104.3	O=S(=O)(NCCc1n[nH]c(Cc2ccc(F)cc2)n1)c1ccc(Cl)cc1
99.1	O=C1CN(Cc2cccc(Br)c2)S(=O)(=O)c2ccccc2N1Cc1ccc(F)cc1
118.8	CCCCCCCCNC(=O)c1ccccc1O[C@@H]1O[C@H](COC(C)=O)[C@@H](OC(C)=O)[C@H](OC(C)=O)[C@H]1NC(C)=O
103.3	CCCc1[nH]n(-c2ccc(F)cc2)c(=O)c1C=Nc1ccc(Cl)cc1

7 entries out of the list above, ordered by their value in GIV Gai3 FP, lowest first.
GIV Gai3 FP	smiles
98.6	CCOC(=O)C1(C)C=C(Nc2ccccc2)C(=O)N1c1ccccc1 (stereo not drawn)
100.0	CC1CCN(S(=O)(=O)c2ccc3c(c2)C(=O)Nc2cc(Cl)ccc2O3)CC1
106.2	Cc1ccc(C23CC4CC(CC(C(=O)NC5C6CC7CC(C6)CC5C7)(C4)C2)C3)cc1 (stereo not drawn)
106.7	CCN(CC)c1ncnc2c1oc1ccccc12
107.0	CCOC(=O)C1CCCn2c1nc1cc(-c3ccc(OC)cc3)sc1c2=O (stereo not drawn)
107.5	CCOC(=O)Cc1nnc2c(Nc3ccccc3C)nc3nonc3n12
108.6	COc1cc(-c2nc3c4ccccc4c4ccccc4c3[nH]2)cc(OC)c1OC

(continued)
GIV Gai3 FP	smiles
105.5	CCOc1ccccc1NC(=O)c1cc(S(=O)(=O)N2CCN(c3cccc(Cl)c3)CC2)ccc1F
101.7	O=C(c1ccccc1[N+](=O)[O-])N1N=C(C(F)(F)F)CC1(O)c1cccnc1 (stereo not drawn)
106.8	O=c1cc(CSc2nc(NCCc3ccccc3)c3ccccc3n2)nc2ccc(Cl)cn12
108.2	CN(C)c1ccc(NC(=O)c2sc(SCC(=O)Nc3nccs3)nc2N)cc1
92.7	CCOc1ccc(N2CC(C(=O)NCc3nnnn3-c3ccc(F)c(F)c3)CC2=O)cc1 (stereo not drawn)
105.3	O=S(=O)(c1ccccc1)N1CCn2cccc2C1c1ccc(F)c(F)c1 (stereo not drawn)
99.4	COC(=O)Cc1nc(N2CCN(c3ccccc3)CC2)c2c(C)c(C)sc2n1
101.3	CCc1nc(-c2ccc(C)c(S(=O)(=O)NC3CC3)c2)no1
111.7	O=C1c2ccccc2C(=O)N1C1C(=O)N(c2cccc(C(F)(F)F)c2)C1c1ccc(F)cc1 (stereo not drawn)
105.4	O=C1CN(Cc2ccc(F)cc2Cl)S(=O)(=O)c2ccccc2N1Cc1cccc(F)c1
112.9	O=C1c2ccc([N+](=O)[O-])cc2C(=O)N1C1C(=O)N(c2ccc(Cl)cc2[N+](=O)[O-])C1c1cccs1 (stereo not drawn)
102.0	O=C(NC1CCCCC1)C1CCN(c2cnc(N3CCCCCC3)nc2)CC1
102.6	O=C(NCC1CCCO1)c1cccnc1Oc1cccc(NS(=O)(=O)c2ccccc2)c1 (stereo not drawn)
101.8	O=c1c(S(=O)(=O)N2CCCC2)cccn1Cc1cccc(F)c1
96.9	O=C(CN1CCN(S(=O)(=O)c2ccc(F)c(F)c2)CC1)Nc1nnc(-c2ccccc2)s1
102.3	CC(C)c1nnc(-c2coc(S(=O)(=O)N3CCCCCC3)c2)o1
105.3	O=C(CSc1nnc2c(=O)n(-c3cccc(F)c3)ccn12)c1ccccc1
100.3	Cc1nnc(-c2csc(S(=O)(=O)NC(C)C)c2)o1
113.6	CCCS(=O)(=O)c1c(S(=O)(=O)CCC)c2c(N)cccn2c1C(=O)c1ccc(C)cc1C
110.1	CCOC(=O)c1[nH]c2ccc(OC)cc2c1NC(=O)CNc1nc(C)c(C)s1

Taken from above:
In GIV Gai3 FP, O=C1c2ccccc2C(=O)N1C1C(=O)N(c2cccc(C(F)(F)F)c2)C1c1ccc(F)cc1 (stereo not drawn) shows 111.7
In GIV Gai3 FP, CCOc1ccccc1NC(=O)c1cc(S(=O)(=O)N2CCN(c3cccc(Cl)c3)CC2)ccc1F shows 105.5
In GIV Gai3 FP, O=C1c2ccc([N+](=O)[O-])cc2C(=O)N1C1C(=O)N(c2ccc(Cl)cc2[N+](=O)[O-])C1c1cccs1 (stereo not drawn) shows 112.9

New compounds follow:
GIV Gai3 FP	smiles
102.0	CCc1ccc(-c2noc(CSc3nc4cc5c(cc4c(=O)n3Cc3ccncc3)OCO5)n2)cc1
101.2	CC(C)CN1CCN(S(=O)(=O)c2ccc(-c3nnc(C(C)C)o3)o2)CC1
110.2	O=C(Nc1ccc(F)cc1)c1nnc(C2CCCN(C(=O)Nc3ccccc3Cl)C2)s1 (stereo not drawn)
114.4	COc1ccc(C2/C(=C(\O)c3ccc(Cl)cc3)C(=O)C(=O)N2CCCN2CCOCC2)cc1 (stereo not drawn)
106.7	Cc1ccccc1NC(=O)c1ccc(=O)n(Cc2ccc(F)cc2)c1
106.2	Cc1ccc(C23CC4CC(CC(C(=O)N(C)C)(C4)C2)C3)cc1
96.8	CCCn1cnc2cc(-c3noc(CNC(=O)c4ccc(C)cc4)n3)ccc21
105.4	Cn1nc(C(=O)Nc2cccc(F)c2)c2c1CCN(C(=O)CCC(=O)NC1CCCC1)C2
110.1	COc1cccc(N2C(=O)C(N3C(=O)c4c(Cl)c(Cl)c(Cl)c(Cl)c4C3=O)C2c2cccs2)c1 (stereo not drawn)
118.8	CCN(CC)c1ccc2c(c1)OC1(C)CC2/C(=C(\C)O)C(=O)N1 (stereo not drawn)
110.4	OC1(c2ccc(Cl)cc2)CN(c2ccc(Br)cc2)C2=[N+]1CCCS2 (stereo not drawn)
103.6	COc1ccc(-n2c(C)nc3cc(C(=O)NCCc4ccc(OC)c(OC)c4)ccc32)cc1
105.1	COc1ccccc1NC(=O)c1c(NC(=O)c2ccc(C)cc2)sc2c1CCCCC2
110.2	COc1ccc(OC)c(/C=c2\sc3nc(-c4ccccc4)c(-c4ccccc4)n3c2=O)c1
104.9	CCCc1ccc(C#N)c(SCC(=O)Nc2ccc(C(=O)O)cc2)n1
100.6	CCN1CCN(C(=O)c2n[nH]c3c2CC(C)CC3)CC1 (stereo not drawn)
105.2	COc1ccc(-n2c(=O)c3c4c(sc3n3c(C)nnc23)CCCCC4)cc1
107.2	CCOC(=O)C1CCN(c2ncnc3c2cnn3-c2ccc(Cl)cc2)CC1
109.5	O=C(CSc1nc2ccccc2c(=O)[nH]1)Nc1ccccc1
104.8	CC1=C(C(=O)OC(C)C)C(c2ccc(Cl)c(Cl)c2)CC(=O)N1 (stereo not drawn)

Other results follow:
GIV Gai3 FP	smiles
108.2	CN(C)c1cc(OC2CCN(C(=O)Cc3cccs3)C2)ncn1 (stereo not drawn)
103.2	CC1=NN(c2cc(Cl)cc(Cl)c2)C(=O)/C1=C/c1ccc(-c2ccc3c(c2)C(=O)OC3)o1
102.2	O=C1NC(=S)NC(=O)C1=Cc1cc(Cl)c(OCc2ccc(F)cc2)c(Cl)c1
184.8	CCOC(=O)C1=C(C)N=c2s/c(=C\c3cc(C)n(C)c3C)c(=O)n2C1c1ccc(OC)c(OC)c1 (stereo not drawn)
108.7	CC(=O)N1CCC(C(=O)NCc2ccccc2)(N(C(=O)c2ccc(C)cc2)c2cccc(Br)c2)CC1
107.2	CCOC(=O)c1c(NC(=O)CSc2nnc(CNC(=O)c3ccco3)n2CCc2ccccc2)sc2c1CCC2
111.4	CCOc1ccc(S(=O)(=O)N2CCN(c3cccc(C)c3)C(C)C2)c2cccnc12 (stereo not drawn)
109.8	COc1ccc(C2SCCN2S(=O)(=O)c2ccc3ccccc3c2)cc1OC (stereo not drawn)
112.3	Cc1cccc(C(=O)Nc2cc3c4c(c2)C2CCCC2CN4CC2CCCC32)c1 (stereo not drawn)
121.3	COC(=O)C1=c2s/c(=C/c3ccc(O)cc3)c(=O)n2C(N)=C(C#N)C1c1ccc(O)cc1 (stereo not drawn)
105.6	Cc1ccc(/C(O)=C2\C(=O)C(=O)N(c3nnc(C)s3)C2c2ccc(C(C)(C)C)cc2)cc1 (stereo not drawn)
101.7	Cc1cccc(NC(=O)CSc2nc3ccccc3nc2Cc2cccc([N+](=O)[O-])c2)c1
109.0	Clc1ccc(-c2nnc3ccc4ccccc4n23)cc1
98.9	N#CC1=C(N)Oc2n[nH]c(-c3ccc4c(c3)OCO4)c2C1c1ccccc1C(F)(F)F (stereo not drawn)
122.3	CC(=O)Oc1ccc(C(=O)Nc2ccc3nc(-c4ccc(Cl)cc4)oc3c2)cc1
107.8	Cc1csc(-c2cc(S(=O)(=O)NC(C)(C)C)cn2CC(=O)N2CCCCC2)n1
98.0	O=C(Nc1ccc(F)cc1)c1nnc(C2CCN(C(=O)Nc3ccc(F)c(Cl)c3)CC2)s1
103.8	Cc1ccc(-c2noc(C3CCCN3C(=O)C3CC(=O)N(c4cccc(Cl)c4)C3)n2)cc1 (stereo not drawn)
116.8	COc1ccc(C2Nc3cccc4cccc(c34)N2)cc1O
107.1	CCc1cc(Sc2ccc(NS(=O)(=O)c3ccc4c(c3)CCCC4)cc2)n2nc(C)nc2n1

Additional structures.
GIV Gai3 FP	smiles
108.7	CC(C)(C)c1cc2oc3c(c2cc1OC(=O)c1ccccc1[N+](=O)[O-])CCCC3
100.6	CCC(=O)Nc1ccc(S(=O)(=O)NCc2ccc3c(c2)CCN3C(=O)c2ccc(F)cc2)cc1
103.0	COc1cccc(-n2nnc(-c3nsc(Nc4ccc(OC)c(Cl)c4)n3)c2C)c1
119.5	CC(=O)N(C)c1ccc(NC(=O)C(C)(C)C)cc1
112.1	CCCCOc1ccc(C2CC(=O)C3=C(C2)c2c(ccc4ccccc24)NC3c2ccc(OC)cc2)cc1 (stereo not drawn)
100.4	Cc1nc(CNC(=O)[C@H]2CCCN2S(=O)(=O)c2ccc(F)c(Cl)c2)cs1
113.2	Cc1ccc(Cl)cc1N1CCN(c2ncc(NC(=O)c3ccc(F)cc3)cc2C(=O)O)CC1
99.9	Cc1n[nH]c(=O)c2cc(S(=O)(=O)NC3CCCC3)cn12
102.5	C=CCn1c(SCC(=O)Nc2ccc(OC)cc2)nc2sc(CC)cc2c1=O
106.1	COc1cccc(NC(=O)N2CCC3(CC2)Nc2ccccc2-n2cccc23)c1
101.7	O=C(Nc1cc(Cl)ccc1Oc1ccc(Cl)c2ccccc12)c1cc(I)cc(I)c1O
104.4	N#Cc1c(-c2cccc(F)c2)cc(-c2ccccc2)nc1SCC(=O)Nc1nc2ccccc2o1
101.0	Cc1ccnc(NC(=O)c2nc(-c3ccc(C)c(S(=O)(=O)N4CCCCC4)c3)no2)c1
102.1	COC(c1ccccc1)c1oc2c(C)c3oc(=O)cc(C)c3cc2c1-c1ccccc1 (stereo not drawn)
99.5	CCc1onc(C)c1C1CCCN1C(=O)NC1CCCCC1 (stereo not drawn)
107.2	CCC(C)Nc1ncnc2sc(C(=O)O)c(C)c12 (stereo not drawn)
102.2	Cc1nn2c3ccccc3n(CC(=O)c3ccc(Cl)cc3)c2nc1=O
113.4	CNC(=O)C(=O)Nc1ccc(Cl)c(C(F)(F)F)c1
98.0	Nc1nnc(SCc2nnc(-c3cccc(F)c3)o2)s1
107.5	CCn1cnc2sc(C(=O)N3CCN(Cc4ccccc4)CC3)c(C)c2c1=O

Further records follow:
GIV Gai3 FP	smiles
116.8	N=C1S/C(=C\c2cn[nH]c2-c2ccc(F)cc2)C(=O)N1c1nccs1
99.7	CCOC(=O)c1sc2nc(SCC(=O)N(CC)CC)n(CC3CCCO3)c(=O)c2c1C (stereo not drawn)
118.8	COC(=O)c1c(NC(=O)c2c(-c3ccccc3Cl)noc2C)sc2c1CCC(C(C)(C)C)C2 (stereo not drawn)
99.3	CCN1CCN(CCNC(=O)c2cnc3c(C)cccn3c2=O)CC1
98.4	CSc1nnc(-c2nn(C)c3c2CN(C(=O)c2ccnn2C)CC3)n1C
100.9	Cc1ccc(CN2CCCC2c2cc(C(C)C)no2)s1 (stereo not drawn)
100.8	CCOc1ccc(CNC(=O)C2CCCN(C(=O)c3ccccc3Cl)C2)cc1 (stereo not drawn)
101.3	CC(C)CCNS(=O)(=O)c1ccc2c(c1)N(Cc1noc(C3CCC3)n1)C(=O)CO2
103.9	CCCCC(=O)Nc1ccc(Nc2nc(C)cc(NCC)n2)cc1

A portion of the library; count on the stated rates, not on these rows.
